TSHR agonist = qHTS Assay for Agonists of the Thyroid Stimulating Hormone Receptor; actives 0.48% (n = 73,000); Thyrotropin receptor (Homo sapiens), P16473; HEK293-CNG-TSHR cells (CNG channel as cAMP sensor), membrane potential dye, cAMP; Potency, µM (top dose mostly 57.1 µM), for inactives: at the top dose activation, actives largely listed as activators; active = well fitted activation curve of enough size with the parental cells flat; inconclusive = any curve in the parental cells; inactive = parental cells flat and receptor cells flat or falling; note: potency is the fitted concentration of half-maximal effect; % of control where 0% means no effect; weak receptor curves with flat parental cells got no call and are not listed
Target sequence (P16473 whole entry, looked up): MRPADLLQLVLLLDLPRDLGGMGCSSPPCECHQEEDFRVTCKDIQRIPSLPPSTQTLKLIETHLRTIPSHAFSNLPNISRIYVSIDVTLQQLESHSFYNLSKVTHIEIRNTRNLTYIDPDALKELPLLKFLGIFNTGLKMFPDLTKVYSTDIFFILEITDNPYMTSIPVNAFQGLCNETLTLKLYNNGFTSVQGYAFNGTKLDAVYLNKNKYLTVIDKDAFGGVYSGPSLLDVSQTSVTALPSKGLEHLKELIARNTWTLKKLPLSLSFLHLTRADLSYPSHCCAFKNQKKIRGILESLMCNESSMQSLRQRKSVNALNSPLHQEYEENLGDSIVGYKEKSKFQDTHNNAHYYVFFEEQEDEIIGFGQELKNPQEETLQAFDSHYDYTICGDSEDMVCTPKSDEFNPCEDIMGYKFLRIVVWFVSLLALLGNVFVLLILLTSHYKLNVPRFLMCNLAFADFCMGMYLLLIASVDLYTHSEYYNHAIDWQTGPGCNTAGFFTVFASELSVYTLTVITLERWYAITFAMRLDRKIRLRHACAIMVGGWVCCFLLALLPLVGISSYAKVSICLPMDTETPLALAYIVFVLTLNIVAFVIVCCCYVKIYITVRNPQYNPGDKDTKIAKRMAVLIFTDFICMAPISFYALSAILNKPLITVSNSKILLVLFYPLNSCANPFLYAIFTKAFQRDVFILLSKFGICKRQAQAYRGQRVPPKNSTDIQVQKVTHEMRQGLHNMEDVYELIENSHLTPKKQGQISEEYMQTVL
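HEK 293 cells stably expressing TSHR and a cAMP-gated CNG channel; parental CNG-only cells as counterscreen. Cells preloaded 60 min with membrane potential dye plus 100 uM RO 20-1724, then compound 30 min; fluorescence read at 590 nm.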
AID923 = qHTS Assay for Allosteric/Competitive Inhibitors of Caspase-1: Spectroscopic Profiling in AFC Spectral Region; actives 1.1% (n = 75,000); Potency, µM (highest dose often 57.5 µM), without a hit: at the top dose fluorescence increase, usual class: activators; compound fluorescence, AFC spectral region (405/520 nm); almost no hit is shown here; AID 923, 2007; active = well fitted activation curve with a large enough effect; inconclusive = small, poorly fitted or top-dose-only effect;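 note: potency is the fitted concentration of half-maximal effect; 0% is about no effect; scaled to a free AFC standard on each plate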
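Titrations up to 57 uM read every 20 sec for 3 min (405/520 nm) with 50 nM caspase 1 and 5 uM Ac-WEHD-AFC, pH 7.5 HEPES buffer. Fluorescence-vs-time intercept gave baseline, scaled against on-plate AFC standard.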
Resorufin autofl = qHTS Assay for Spectroscopic Profiling in Resorufin Spectral Region. Compound fluorescence, resorufin region 547/598 nm, buffer; stronger effect = higher value. max dye-equivalent concentration, M. actives 0.04% (n = 59,000). AID 588, 2007; active = above 10 nM dye equivalent; inconclusive = 1 to 10 nM; inactive = 1 nM or less; a few of its hits are not listed in these tables; note: highest value over a series up to 38 µM
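Dye-equivalent concentration values derive from comparing each well's 547/598 nm fluorescence against resorufin standards included on every plate. Incubation was 15 min at room temperature in 100 mM Tris, pH 8.0.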
A488 autofl = qHTS Assay for Spectroscopic Profiling in A488 Spectral Region. max dye equivalency, M. AID 591, 2007. compound autofluorescence, A488 spectral region, dye equivalency; stronger effect = higher value. actives 0.1% (n = 59,000); active = above 10 nM dye equivalent; inconclusive = 1 to 10 nM; inactive = 1 nM or less; about half of its hits are not listed in these tables;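 note: highest value over a series up to 38 µM; compound alone in buffer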
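Read-out: relative fluorescence at 480/540 nm, expressed as Alexa 488 dye-equivalent concentration from a six-point A488 standard included per plate. Conditions: 100 mM Tris, pH 8.0; 15 min incubation, room temperature.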
A647 fluor = qHTS Assay for Spectroscopic Profiling in A647 Spectral Region | Compound fluorescence, A647 channel (570/671 nm), Tris buffer | max dye-equivalent concentration, M | 59,000 tested, under 10 active; active means above 1 µM dye equivalent; inconclusive means 0.1 to 1 µM; inactive means 0.1 µM or less;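 note: values scaled relative to a standard on each plate; highest value over a series up to 38 µM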
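Spectral profiling of library compounds in pH 8.0 Tris: 15 min room-temperature incubation, single ex/em pair (570/671 nm), response normalized to Alexa 647 equivalents.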
Numbers without * were called inactive; i = inactive; ? = inconclusive; nt = no result given; & = joins results of further samples; [ ] = remark or other dose. The list is partial; rates above refer to the full screens.

SMILES | TSHR agonist | AID923 | Resorufin autofl | A488 autofl | A647 fluor
Cn1c(Cc2cccs2)n[nH]c1=S | 2% | -0.5% | i | i | 1e-09
Cn1c(=O)c2c(-c3ccccc3)n(Cc3cccnc3)cc2n(C)c1=O | -2% | 2.0% | i | i | 2.2e-08
Cn1c(=O)oc2cc(S(=O)(=O)N3CCC(C(=O)Nc4ccc(OC(F)(F)F)cc4)CC3)ccc21 | 5% | -0.2% | i | i | 2.7e-09
Cc1onc(-c2c(Cl)cccc2Cl)c1C(N)=O | ? | 0.3% | nt | nt | nt
Cc1cc(C)nc(SCCS(=O)Cc2ccc(Cl)cc2)n1 (stereo not drawn) | 2% | 0.9% | i | i | 3.1e-08
NS(=O)(=O)c1ccc(N=Nc2ncccc2O)cc1 | -4%[11.4 µM] | 3.3%[11.5 µM] | i | i | 1e-09
CCOc1ccc2nc(SC(CC)C(=O)Nc3cc(C)on3)sc2c1 (stereo not drawn) | ? | -0.7% | nt | nt | nt
O=C(Nc1ccccc1C(=O)N1CCOCC1)c1ccco1 | ? | -0.4% | nt | nt | nt
COc1ccc(CN(CC2CCCO2)S(=O)(=O)c2ccc(C(=O)O)cc2)cc1OC (stereo not drawn) | 1% | 1.4% | i | i | 1e-09
NC(=O)c1cccnc1 | -4% | 3.6% | nt | nt | nt
O=C(C1CCCN(S(=O)(=O)Cc2ccccc2)C1)N1CCc2ccccc21 (stereo not drawn) | 6% | 0.3% | i | i | 9.1e-09
C[C@@H](c1ccccc1)N1C(=O)[C@H]2[C@@H]3[C@H](O)C=CC(=O)[C@H]3CC[C@H]2C1=O | 8%[11.4 µM] | 0.0%[11.5 µM] | nt | nt | nt
O=C(O)CNC(=O)[C@@H](CS)Cc1ccccc1 | -2%[25.6 µM] | 2.1%[25.7 µM] | i | i | 6.2e-09&2.8e-08
CCN(CC(=O)Nc1cccc(C(C)=O)c1)S(=O)(=O)c1ccc(OC)cc1 | -15% | 0.9% | i | i | 1.8e-08
Cc1ccc(NC(=O)C2CCCN(c3ncccn3)C2)cc1F (stereo not drawn) | ? | 0.1% | i | i | 1e-09
C=C(CO)[C@H]1Cc2c(ccc3c(=O)c4c(oc23)COc2cc(OC)c(OC)cc2-4)O1 | -9% | nt | i | i | 1.8e-08
Cc1ccc(NC(=O)c2noc3c2CCCCC3)cc1 | -11% | 0.6% | i | i | 5.7e-09
CCNc1ncc2nc(CCc3ccccc3)c(=O)n(Cc3cccc(OC)c3)c2n1 | 28% | 8.6% | i | i | 1e-09
CCCCCCSC1=C(C#N)C(c2ccc(O)cc2)CC(=O)N1 (stereo not drawn) | 0% | 0.7% | i | i | 6.3e-08
O=C(c1ccc(-n2cnnn2)cc1)N1CCOCC1 | nt | nt | i | i | 4.1e-09
OCC#CCSc1nnc(-c2ccncc2)o1 | 1% | -2.0% | i | i | 1e-09
O=C(O)c1ccc(B(O)O)cc1 | 20% | -0.7% | nt | nt | nt
Cc1ccc(S(=O)(=O)N2CCN(C(=O)N3CCOCC3)C2C(C)C)cc1 (stereo not drawn) | 10%[11.4 µM] | -1.3% | i | i | 1.6e-08
O=C(CSc1ccccc1)Nc1ccccc1N1CCOCC1 | 12% | -0.7% | i | i | 2.4e-09
O=C(c1cnccn1)N1CCC2(CC1)CN(c1cccc(-c3ccccc3)c1)C2 | nt | -2.1% | i | i | 1e-09
CC(C)C1CC(=O)NC(SCC(=O)Nc2ccc(Br)cc2)=C1C#N (stereo not drawn) | -1% | 3.0% | i | i | 3.7e-08
O=C(CN(c1ccc(F)cc1)S(=O)(=O)c1ccc2c(c1)OCCO2)Nc1cccnc1 | -4% | 1.1% | i | i | 6.6e-09
COc1ccc(-n2c(=O)cnc3cnc(N4CCN(C)CC4)nc32)cc1 | 0% | 2.4% | i | i | 4.8e-09
O=C(Nc1ccc(NC(=O)C2CCCN2C(=O)OCc2ccccc2)cc1)c1ccco1 (stereo not drawn) | -7%[11.4 µM] | 0.8% | i | i | 1e-09
Cn1c(=O)[nH]c(=O)c2c1nc(NCCCO)n2CCCc1ccccc1 | -1% | 1.7% | i | i | 2.1e-08
Cc1nc2c(c(=O)n1CC1CCCO1)c1nc3ccccc3nc1n2CCC(C)C (stereo not drawn) | nt | nt | i | i | 3.7e-08
CNc1ncnc2ccc(-c3ccccc3C)cc12 | ? | 8.6% | i | i | 7.9e-09
CC(=O)NCCOc1cccc(OCCNC(C)=O)c1 | 1% | 5.8% | i | i | 2.2e-08
CC1(C)CC(=O)C(C(c2cccc(O)c2O)C2C(=O)CC(C)(C)CC2=O)C(=O)C1 | 3%[11.4 µM] | -2.4%[11.5 µM] | i | i | 3.9e-09
Cc1nc(SC2CC(=O)N(c3ccccc3)C2=O)nc2c1CCCC2 (stereo not drawn) | 8% | -1.5% | i | i | 4.9e-09
CCOC(=O)CCCCC(=O)c1[nH]c(=O)[nH]c1Cn1cnc2ccccc21 | -10% | 0.8% | i | i | 2.1e-09
O=C(c1cccc2ccccc12)N1CCC(N2CCN(c3ccccc3)CC2)CC1 | nt | nt | i | i | 1.4e-08
C=C1CC[C@@H](O)C/C1=C/C=C1\CCC[C@]2(C)[C@@H]1CC[C@H]2[C@@H](C)/C=C\[C@@H](C)C(C)C | 13% | nt | i | i | 1e-09
COCCN(CCOC)S(=O)(=O)c1ccc(C(=O)NC2CCN(Cc3ccccc3)CC2)cc1 | 15% | -1.8% | i | i | 3e-09
O=C1C2CCCN2C(c2ccc(F)c(F)c2)N1c1cccc(Cl)c1 (stereo not drawn) | 11% | 0.2% | nt | nt | nt
CC(C)NC(=O)N1CCCC2(CCN(C(=O)c3ccncc3)CC2)C1 | 1% | 0.6% | i | i | 1.6e-09
CCOc1ccccc1C(=O)N(Cc1ccco1)C1CCS(=O)(=O)C1 (stereo not drawn) | 13% | 1.2% | i | i | 1e-09
O=C1C(=O)N(CCCn2ccnc2)C(c2cccnc2)/C1=C(/O)c1ccc(Br)cc1 (stereo not drawn) | 7% | 0.6% | nt | nt | nt
O=C(Nc1nccs1)C1CCCN(S(=O)(=O)c2cccc3cccnc23)C1 (stereo not drawn) | -1% | 2.5% | nt | nt | nt
CS(=O)(=O)Nc1cccc(-c2ccc3ncnc(Nc4ccccc4)c3c2)c1 | ? | 1.1% | i | i | 1.4e-08
COc1ccc(C2C(C(=O)Nc3cc(C)on3)c3ccccc3C(=O)N2C)cc1 (stereo not drawn) | ? | 1.5% | i | i | 4e-09
C=C(C)CN(CC)CCC(=O)Nc1ccc(OC)cc1OC | nt | nt | i | i | 4.1e-08
CCN(C1CCCCC1)S(=O)(=O)c1ccc(S(=O)(=O)NCc2ccncc2)cc1 | ? | 0.0% | i | i | 1e-09
CCOC(=O)c1sc2cccc(F)c2c1N | ? | -0.4% | i | i | 2.2e-08
COc1cc(-c2nnc(-c3ccc(N4CCOCC4)cc3)o2)cc(OC)c1OC | ? | 1.3% | i | i | 2.9e-08
OCCN1CCN(CC#CCn2c3ccccc3c3ccccc32)CC1 | ? | -0.2% | i | i | 2.4e-08
O=C(c1ccc(COc2ccccc2Cl)o1)N1CCN(c2ccccc2)CC1 | 58% | 2.3% | nt | nt | nt
O=C(CCN1CCOCC1)Nc1c(-c2ccccc2)c2cc(Br)ccc2[nH]c1=O | -4% | 1.5% | nt | nt | nt
Cn1c(SC2=CS(=O)(=O)c3ccccc32)nc2ccccc21 | 2% | 1.8% | i | i | 2.7e-08
CCc1nnc(NC(=O)CSc2nc(-c3ccc(OC)cc3)ns2)s1 | 2% | 0.0% | i | i | 1.7e-08
c1ccc2cc3[nH]c(CN4CCCCC4)nc3cc2c1 | 5% | -2.1% | nt | nt | nt
COc1ccc(CCNc2oc(-c3ccccc3OC)nc2C#N)cc1 | 2% | 0.1% | i | i | 8.9e-09
CCCCCCC(=O)N1CCN(c2cc3c(cc2F)c(=O)c(C(=O)O)cn3CC)CC1 | nt | nt | i | i | 1.7e-09
CN(CCCn1c(=S)[nH]c2ncccc2c1=O)Cc1ccccc1 | -5% | 0.3% | i | i | 1.4e-09
CS(=O)(=O)N1CCN(C(=O)c2ccccc2)C1 | 2% | 0.1% | i | i | 1e-09

The list goes on:
SMILES | TSHR agonist | AID923 | Resorufin autofl | A488 autofl | A647 fluor
CCC1(c2ccc(F)cc2)NC(=O)N(CC(=O)N2CCOCC2)C1=O (stereo not drawn) | 7% | -0.9% | i | i | 9.5e-09
O=C(COC(=O)Cc1cccs1)Nc1ccccc1 | 0% | 0.7% | i | i | 7.9e-09
COc1ccc2nnc(-c3ccccc3)n2n1 | -3% | 9.0% | nt | nt | nt
CCCCN1CCC(CCC(=O)c2cc(Cl)c(N)cc2OC)CC1 | ? | -0.5% | nt | nt | nt
Cn1c(SCC(=O)c2ccc3c(c2)OCO3)nnc1-c1ccccn1 | ? | -1.7% | i | i | 1.7e-08
CC(C)n1nnnc1SCC(=O)Nc1ccccc1N1CCOCC1 | 3% | 0.2% | i | i | 1e-09
Cc1ccc2c(c1)NC(=O)C(CC(=O)NCCN(C)C)O2 (stereo not drawn) | -5% | -0.8% | nt | nt | nt
CC(C)(C)c1ccc(S(=O)(=O)N2CCCCC2C(=O)NCc2ccccn2)cc1 (stereo not drawn) | 58% | 0.1% | nt | nt | nt
Nc1cc(C(F)(F)F)ccc1C(=O)O | 15% | 0.5% | nt | nt | nt
O=C(O)C1CCC(CNc2c(NC3CCCCC3)c(=O)c2=O)CC1 (stereo not drawn) | 38% | 0.1% | nt | nt | nt
Cc1ccc(S(=O)(=O)N2CCN(C(=O)c3c(C)nn(-c4ccccc4)c3Cl)CC2)cc1 | nt | 0.0% | i | i | 1e-09
C=CCn1c(Cc2ccc(OCC)cc2)nnc1SCC(N)=O | 6% | 0.7% | i | i | 4.1e-09
CCCc1nc2ccccc2c2nc(N)nn12 | 7% | 1.5% | i | i | 1.2e-08
COc1cc(Nc2cc(C)nc3nc(C)nn23)cc(OC)c1OC | 3% | -4.7% | nt | nt | nt
O=C(NCCN1CCCC1)c1ccc(-n2c(=O)c(=O)[nH]c3ccccc32)cc1 | 1% | 1.2% | nt | nt | nt
COc1cccc(Cn2nnc(C(=O)NCc3ccc(F)cc3)c2N)c1 | -2% | 2.7% | nt | nt | nt
CCOC(=O)c1cc2cc(OC)ccc2[nH]1 | nt | nt | i | i | 9.9e-08
CCCNC(=O)OC[C@@H]1O[C@H](CCO/N=C(\C)CCN2CCCCc3nc(C)c(C)cc32)C=C[C@@H]1Oc1ccc(OC)cc1 | 10%[11.4 µM] | 0.5%[11.5 µM] | nt | nt | nt
Cc1ccc(C)c(NS(=O)(=O)c2ccc(OCC(=O)N3CCOCC3)cc2)c1 | 2% | 0.7% | i | i | 3.5e-09
Cc1cc(-c2csc(N)n2)c(C)n1CCc1ccccc1 | -19% | 7.4% | i | i | 4.6e-08
Cc1cc(C)nc(-n2nc(C)cc2NC(=O)c2ccc(Br)o2)n1 | nt | -1.0% | i | i | 7.1e-09
COc1ccc(C2CC(c3ccc(Cl)cc3Cl)n3nc(N)nc3N2)cc1 (stereo not drawn) | 6% | -2.5% | nt | nt | nt

Molecules above with bromine (4):
SMILES | TSHR agonist | AID923 | Resorufin autofl | A488 autofl | A647 fluor
CC(C)C1CC(=O)NC(SCC(=O)Nc2ccc(Br)cc2)=C1C#N (stereo not drawn) | -1% | 3.0% | i | i | 3.7e-08
O=C1C(=O)N(CCCn2ccnc2)C(c2cccnc2)/C1=C(/O)c1ccc(Br)cc1 (stereo not drawn) | 7% | 0.6% | nt | nt | nt
O=C(CCN1CCOCC1)Nc1c(-c2ccccc2)c2cc(Br)ccc2[nH]c1=O | -4% | 1.5% | nt | nt | nt
Cc1cc(C)nc(-n2nc(C)cc2NC(=O)c2ccc(Br)o2)n1 | nt | -1.0% | i | i | 7.1e-09

Screening data (PubChem BioAssay)
